Screening results: PubChem, National Center for Advancing Translational Sciences (NCATS)
gsp ag = gsp mutant agonism; gsp mutant cells, cAMP HTRF, 30 min; control for the full effect not named in the record; Potency, µM (doses to about 76.9 µM), inactives show top-dose activation (cAMP increase), most hits filed as activators; 340,000 tested, 0.13% active; AID 624287; active = well fitted activation curve with a large enough effect; inconclusive = small, poorly fitted or top-dose-only effect, or another doubt; inactive = no such curve, though single readings can be large or run the other way; cell line not stated here;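 further: phosphodiesterase inhibitor Ro 20-1724 added with compounds to block cAMP breakdown; potency means the concentration at half of the fitted maximal effect; nearly all actives have a fitted effect of over 60% in size; about a fifth of the inactives were tested at one dose only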
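Cells in DMEM/10% FBS with G418 were pretreated with compounds in DMSO plus […] (300 uM stock) for 30 min at 37C. cAMP was measured by HTRF (cAMP-d2 plus anti-cAMP antibody-K) after 30 min at room temperature.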
Menin MLL FP FL = displaces fluorescein MLL peptide from human menin; Fluorescence polarization, fluorescein-MLL peptide displacement from menin; FP activity change, % at 61.4 µM; 290,000 tested, under 10 active; inconclusive = falling polarisation curve, or a change in total fluorescence; inactive = total fluorescence flat and polarisation flat or rising; no compound was filed as active; the % refers to the polarisation; negative = inhibition;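 further: % of control where 0% means no effect; inhibitors lower the polarisation; unlabelled MLL peptide was the positive control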
TRPV1 PAM = human TRPV1 potentiation. Q8NER1. TRPV1-expressing cells, Fluo-8 calcium influx, capsaicin EC20 potentiation; host cell line not named in the record; control for the full effect not named in the record. potentiation, % at 8.33 µM. 320,000 tested, 0.02% active; active means potentiation above 80%; inconclusive means 30% to 80%; inactive means below 30%; further: 0% is about no effect
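Cells expressing TRPV1 were dye-loaded with Fluo-8 and read kinetically: 10 s baseline, 3 min after compound (agonist portion), then 2 min after EC20 capsaicin (allosteric enhancer portion). Calcium-bound dye fluorescence at 480/520 nm.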
Sfp PPTase inh = Sfp phosphopantetheinyl transferase inhibition | Q9F4F7 | Biochemical Sfp PPTase activity, qHTS | Potency, µM, for the others: max response, negative = inhibition, actives largely listed as inhibitors | 310,000 tested, 3.5% active; active means well fitted inhibition curve with a large enough effect; inconclusive means small, poorly fitted or top-dose-only effect, or another doubt; inactive means no such curve, though single readings can be large or run the other way;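 further: the enzyme is Sfp with the accession as filed and its product quenches rhodamine fluorescence; potency means the concentration at half of the fitted maximal effect; 0% = enzyme reaction without inhibitor and -100% = no enzyme wells; top concentration of the series not given in the record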
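Step 1, compound plus 15 nM Sfp-PPTase, 15 min, room temperature. Step 2, add rhodamine-CoA (5 uM) and BHQ-2-YbbR (12.5 uM). Step 3, read 525/598 nm fluorescence at 0 and 30 min.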
gsp antagonist = gsp mutant antagonism; gsp-mutant cells, cAMP HTRF, 30 min; control for the full effect not named in the record; Potency, µM (series often up to 76.9 µM), for inactives: top-dose activity change, negative = inhibition, usual class: inhibitors; 340,000 tested, 0.4% active; active = falling curve of any shape with a large fitted effect; inconclusive = falling curve, mostly with a smaller effect; inactive = flat or rising curve; cell line not stated here;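 further: intracellular cAMP measured with PDE inhibitor Ro 20-1724 present during compound exposure; potency means the concentration at half of the fitted maximal effect; on the % scale 0 is the no-effect control and ±100 the full control effect; nearly all actives have a fitted effect of over 65% in size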
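Cells in G418 medium, seeded 16-24 h, 37C; buffer exchange to DPBS + 1 mM CaCl2, 0.5 mM MgCl2, 0.05% BSA; cpds in DMSO + […] (300 uM stock), 30 min 37C; HTRF cAMP detection.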
D2 potentiator = positive allosteric modulators of human D2 dopamine receptor. P14416. potentiation, % (no concentration beside the values). 360,000 tested, 0.23% active. DiscoveRx D2 beta-arrestin cells, luminescence, 90 min; 100% = 57 uM dopamine signal; active = potentiation of 50% or more; inconclusive = 30% to 50%; inactive = 30% or less;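 further: compound concentration not given in the record; tested on top of an EC20 dose of dopamine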
Target sequence (P14416 whole entry, looked up): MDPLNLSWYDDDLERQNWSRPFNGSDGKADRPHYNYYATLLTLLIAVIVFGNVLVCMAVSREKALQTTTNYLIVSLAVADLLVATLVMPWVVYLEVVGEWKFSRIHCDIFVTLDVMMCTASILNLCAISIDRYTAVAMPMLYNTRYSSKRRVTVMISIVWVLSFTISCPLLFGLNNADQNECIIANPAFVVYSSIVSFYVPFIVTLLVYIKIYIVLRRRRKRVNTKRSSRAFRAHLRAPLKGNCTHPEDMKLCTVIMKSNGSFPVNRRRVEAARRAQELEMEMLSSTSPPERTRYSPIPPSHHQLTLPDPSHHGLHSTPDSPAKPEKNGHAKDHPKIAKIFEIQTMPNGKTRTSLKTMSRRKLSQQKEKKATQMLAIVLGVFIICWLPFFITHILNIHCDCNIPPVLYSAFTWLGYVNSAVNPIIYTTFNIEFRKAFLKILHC
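PathHunter beta-arrestin assay in DiscoveRx D2 cells. Compounds were added with an EC20 of dopamine (50 nM final) for 90 min at 37 deg C. Luminescence was read 1 h after detection reagent, with 57 uM dopamine as the EC100 control.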
ClpP mod = qHTS Assay for Activators of ClpP; purified B. subtilis ClpP, FRET peptide cleavage, 20 min; ATP-dependent Clp protease proteolytic subunit (Bacillus subtilis (strain 168)), P80244; 340,000 tested, 1.9% active; Potency, µM (doses to about 57.5 µM), without a hit: at the top dose activity change, negative = active; active = well fitted falling curve with a large enough effect; inconclusive = small, poorly fitted or top-dose-only effect; inactive = no such curve, though single readings can be large or run the other way; further: potency means the concentration at half of the fitted maximal effect; the source files actives as falling curves though it sought activators and does not explain the sign; nearly all actives have a fitted effect of over 65% in size; many hits overshoot -100%
Target sequence (P80244 whole entry, looked up): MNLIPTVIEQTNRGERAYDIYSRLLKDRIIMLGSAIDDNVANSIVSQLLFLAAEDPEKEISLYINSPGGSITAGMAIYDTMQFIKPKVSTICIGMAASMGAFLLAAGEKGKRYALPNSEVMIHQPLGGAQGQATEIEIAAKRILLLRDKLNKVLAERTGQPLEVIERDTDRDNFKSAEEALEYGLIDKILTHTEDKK
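Purified B. subtilis ClpP, 10 microg/mL final in Tris/HCl pH8 with KCl, BSA, glycerol and Tween-20, cleaved an Abz/nitrotyrosine-quenched decapeptide. Fluorescence (ex 320, em 430) was read at 0 and 20 min at room temperature. Delta was normalized to 5.8 microM ADEP and DMSO/no-enzyme controls.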
The depositor's hits bear a star; u = inconclusive; x = no result given; & = joins results of further samples; [ ] = another dose, or the depositor's remark.

compound	gsp ag	Menin MLL FP FL	TRPV1 PAM	D2 potentiator	gsp antagonist	ClpP mod	Sfp PPTase inh
CN(C(=O)c1ccccc1[N+](=O)[O-])c1ccccc1C(=O)NCc1ccccc1	-13%	x	4	-10	5%	-3.5%	15%
CCc1ccc(NC(=O)N2CCC(c3ccccc3)C2)cc1 (stereo not given)	-6%[15.4 µM]	-0.9	-5	-6	-7%	x	-11%
CC1CN(c2nnc(-c3ccccc3)c3ccccc23)CC(C)O1 (stereo not given)	-9%[15.4 µM]	-1.2	-22	-1	-22%	x	22%
O=C(CN1CCc2ccccc21)Nc1ccc2c(c1)OCO2	-2%	6.1	-2	-4	-19%	-9.3%	-1%
O=S(=O)(NCCNS(=O)(=O)c1cccs1)c1cccs1	-2%	1.1	1	-15	1%	0.8%	20%
O=C(COC(=O)c1ccc(S(=O)(=O)N2CCCCC2)cc1)Nc1ccccc1Cl	7%	x	-13	-25	3%	0.9%	x
O=C(Nc1cccn(Cc2c(F)cccc2Cl)c1=O)NC1CCCCC1	-51%[inhibitor]	-0.8	-24	-13	-3%	u	u
CC1Sc2ccc(S(=O)(=O)NCCc3ccc(Cl)cc3)cc2NC1=O (stereo not given)	-35%[inhibitor]	1.1	-10	7	-11%	2.1%	15%
CCCCCCn1c(C(C)O)nc2ccccc21 (stereo not given)	-9%	-0.8	-8	-13	-9%	0.5%	-3%
COc1ccc(C(=O)Nc2ccc3nc(C)sc3c2)cc1OC	-5%[15.4 µM]	8.9	3	-5	-2%	-1.2%	16%
Cc1ccc(N(C)C(=O)C2CCCN2S(=O)(=O)c2cccc3nsnc23)cc1 (stereo not given)	-9%[15.4 µM]	0.2	-4	0	-18%	x	0%
CCCC(=O)c1cc(F)c(N2CCN(CCC#N)CC2)cc1C	-6%	-3.0	1	-16	-3%	-0.5%	-10%
CCOc1ccccc1NC(=S)N(CCCN1CCOCC1)Cc1cn(C)c2ccccc12	8%[15.4 µM]	0.4	30	-35	-4%	-2.9%	-3%
CCN(c1ccccc1)S(=O)(=O)c1ccc(C(=O)NCc2ccccn2)cc1	-7%[15.4 µM]	x	-15	-9	-2%	0.4%	x
C/C(=N/NC(=O)CNC(=O)c1ccc2c(c1)OCO2)c1ccc2c(c1)CCCC2	12%[15.4 µM]	-0.8	-25	-13	-8%	x	-8%
Cc1cc(Cl)c2oc(C(=O)N(C)CCCN3CCOCC3)c(C)c2c1	-52%[inhibitor]	-3.1	-12	3	-1%	-0.4%	-7%
Cc1ccn2c(CNCCCn3cccn3)c(C(=O)N3CCCCCC3)nc2c1	-3%[15.4 µM]	-2.0	-7	-16	-2%	x	19%
CC(C)(C)c1cc(C(=O)NNc2cc(C(F)(F)F)ccc2Cl)n(Cc2ccccc2)n1	-15%[15.4 µM]	0.5	x	2	-11%	3.2µM*	23%
Cc1csc(=Nc2c(C)n(C)n(-c3ccccc3)c2=O)n1-c1ccccc1	-43%[inhibitor]	-1.5	-4	-9	-6%	2.7%	12%
COc1ccc(CCn2c(=N)c(C(=O)N3CCN(C)CC3)cc3c(=O)n4ccccc4nc32)cc1	3%	10	x	-11	-2%	u	1%
CCOC(=O)CCn1nc(-c2ccccc2)cc1N	13%	-0.6	-2	-10	5%	-1.0%	7%
O=C(O)CCCCCCCCc1cn(CCc2c[nH]c3ccccc23)nn1	x	-0.3	6	-8	-16%	-1.4%&-1.2%	-16%
CCOC(=O)c1cnc(-c2cccc(OC)c2)[nH]c1=O	0%	3.2	-1	8	-17%	-13%	-22%
C=CCNC(=S)NNC(=O)c1ccc2c(c1)OCO2	12%	-3.2	16	-13	5%	10%	2%
Cc1cc2ncc(-c3ccc(Cl)cc3)c(N)n2n1	18%	0.8	6	-4	-5%	-4.7%	-2%
COc1ccc(-c2coc3c(C)c4oc(=O)c(CC(=O)O)c(C)c4cc23)cc1	2%[15.4 µM]	14	7	-6	-7%	-0.6%	-1%
CC(C)(C)Cc1nnc(NC(=O)c2cc(-c3ccccc3)nc3ccccc23)s1	16%[15.4 µM]	0.8	5	5	-9%	-1.5%	-5%
CCNc1nc(NCC)nc(OCCOC(C)=O)n1	0%	7.1	-1	-4	1%	-2.7%	12%
COc1ccc(-c2cc(C(=O)NCCc3ccc(S(N)(=O)=O)cc3)c3ccccc3n2)cc1	-5%[15.4 µM]	8.4	-8	16	-29%	x	20%
Cc1cccc(NC(=S)NC(C)C(c2cccs2)N2CCN(C)CC2)c1C (stereo not given)	-46%[inhibitor]	-0.7	4	-32	0%	-1.2%	12%
O=C1CCNc2c(Cl)cc(Cl)cc21	-5%[15.4 µM]	x	6	-12	9%	x	-1%
CCOC(=O)c1c(C)[nH]c(C)c1S(=O)(=O)N(C)CC(=O)Nc1ccccc1	26%	-5.1	u	-1	-1%	1.6%	10%
CCS(=O)(=O)Nc1cccc(C2=NN(S(=O)(=O)c3ccccc3)C(c3cccs3)C2)c1 (stereo not given)	-40%[inhibitor]	20	22	-7	-14%	-0.6%	21%
CCC(C(=O)OCC(=O)Nc1ccc2[nH]c(=O)[nH]c2c1)c1ccccc1 (stereo not given)	-28%	x	-12	-2	-10%	u	x
O=C(Cc1cccs1)N1CCC(c2nc3c(nnn3Cc3ccc(F)cc3)c(=O)[nH]2)CC1	7%	-0.7	-1	-7	6%	-1.4%	-5%
COc1ccc(N2C(=NC(=O)C3CCCCC3)SC3CS(=O)(=O)CC32)c(OC)c1 (stereo not given)	-9%	x	9	-6	-4%	0.5%	13%
O=C(CN1CCN(c2cccc(C(F)(F)F)c2)CC1)N(C1CC1)C1CCS(=O)(=O)C1 (stereo not given)	-26%	x	2	-2	22%	-1.9%	x
O=C(O)COc1ccc(NC(=O)c2ccc(NC(=O)c3ccco3)cc2)cc1	32%[15.4 µM]	0.5	18	-3	-5%	x	10%
CCCC(=O)N(CCN1CCOCC1)c1nc2c(OC)ccc(C)c2s1	15%	0.2	10	-11	-17%	-1.2%	5%
COc1cc(N)n(S(=O)(=O)c2ccc(C)cc2)n1	-15%	-0.6	2	-7	11%	-1.6%	-12%
Cc1cc(NC(=O)c2ccc(C#N)cc2)n(-c2ccccn2)n1	5%	-0.1	-5	-11	-1%	-1.8%	-2%
COc1ccc(NC(=O)COC(C)=O)cc1OC	-3%[15.4 µM]	0.4	1	-5	10%	x	22%
COc1ccc(N2CCN(S(=O)(=O)CCNC(=O)C3CCCCC3)CC2)cc1	0%	-2.0	3	-8	-4%	-9.2%	4%
COc1ccc(F)cc1S(=O)(=O)Nc1ccc(C)cc1	-32%[inhibitor]	-0.8	3	-8	-3%	u	22%
CS(=O)(=O)c1ccc(NC(=O)CCN2C(=O)C3CC=CCC3C2=O)cc1 (stereo not given)	0%	x	2	8	2%	2.4%	x
Oc1cccnc1CCc1ccccc1	-14%	0.2	11	-6	2%	x	8%
Cc1cccc(NC(=O)COc2ccc(-c3nn(C)c(=O)c4ccccc34)cc2)c1	25%	-3.5	30	-1	u	u	-8%
CCOC(=O)Nc1cccc(NC(=O)c2cc(OC)cc(OC)c2)c1	9%	0.2	3	-12	-12%	0.2%	0%
Cc1ccccc1NC(=O)c1sc(NC(=O)C2CC2)nc1C	1%[15.4 µM]	-0.3	-20	-5	1%	0.5%	3%
CC(C)NC1(C(N)=O)CCN(Cc2ccccc2)CC1	12%	x	x	-6	7%	x	x

(continued)
compound	gsp ag	Menin MLL FP FL	TRPV1 PAM	D2 potentiator	gsp antagonist	ClpP mod	Sfp PPTase inh
COC(=O)[C@@H](NC(=O)NCc1ccccc1F)C(C)C	-32%[inhibitor]	-0.4	3	7	-2%	-0.4%	7%
Cc1ccc(NC2CCCN(C(=O)c3ccnc(Cl)c3)C2)cc1C (stereo not given)	u	x	-20	-10	-1%	1.1%	-1%
CC1CCC(NC(=O)CN(C)S(=O)(=O)c2cccc3cccnc23)CC1 (stereo not given)	-1%	-1.1	u	-13	-4%	-1.0%	10%
OC(COCc1ccccc1)CN1CCCC1 (stereo not given)	-4%	-0.6	2	1	-2%	0.8%	17%
CCOC(=O)C1CCN(C2CCN(C(=O)c3oc4c(F)cccc4c3C)CC2)CC1	-42%[inhibitor]	x	2	12	-4%	-13%	-8%
Cc1ccc(C(=O)NC(C)c2ccc(-n3ccnc3)cc2)o1 (stereo not given)	13%[15.4 µM]	x	1	-3	1%	x	x
CCC(=O)NC(c1ccc(OC)c(OC)c1)c1cc(Cl)c2cccnc2c1O (stereo not given)	0%[15.4 µM]	-1.0	1	-21	-9%	3.7%	56µM*
CCC(C)c1ccc(OCc2ccc(C(=O)OC)o2)cc1 (stereo not given)	2%[15.4 µM]	1.1	-2	-2	-8%	x	-9%
CN(CC(=O)Nc1ccc(Cl)cc1)C(=O)CCc1nc2sc3c(c2c(=O)[nH]1)CCCC3	10%	x	8	-6	3%	32µM*	x
CC(=O)Nc1ccc(S(=O)(=O)Nc2cccc(NC(=O)C(C)(C)C)c2)cc1	5%	4.2	u	-5	-13%	-4.8%	0%
Cc1cn2c(nc1=O)OC1CC2OC1CO (stereo not given)	-63%[inhibitor]	1.9	-7	-7	16%	0.7%	18%
CC1(C)CC(=O)c2cnc(N3CCc4ccccc4C3)nc2C1	8%	1.9	-12	-4	13%	0.3%	10%
O=C(c1ccc(N2CCC3(CC2)OCCO3)c([N+](=O)[O-])c1)N1CCOCC1	0%[15.4 µM]	2.8	-12	-5	5%	-1.5%	-11%
O=C(COc1ccccc1)Nc1nonc1NC(=O)COc1ccccc1	-10%	2.9	3	-3	-2%	-0.3%	19%
C[C@H](CO)N1C[C@H](C)[C@H](CN(C)Cc2cccc(O)c2)OCc2ccccc2-c2c(n(C)c3ccccc23)C1=O	13%	x	x	u	x	-3.8%	x
Oc1ccc2ccccc2c1C=NCc1cn2ccsc2n1	-3%	1.3	-27	0	19%	-11%	15%
